KCNQ2 inh: KCNQ2 channel blockers in CHO-K1 cells – cell-based, FluxOR thallium flux, B-score, primary screen (AID 2156); O88943; 20 min; stronger effect = lower value; only compounds with negative scores are shown here; some inactives read as strong as hits; B-score at 10 µM; 1.1% of 310,000 active;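 active = fluorescence ratio B-score at most minus 3 library SDs, with starting brightness B-score within 2 library SDs, cut at about -5.5 in these data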
Target sequence (O88943 whole entry, looked up): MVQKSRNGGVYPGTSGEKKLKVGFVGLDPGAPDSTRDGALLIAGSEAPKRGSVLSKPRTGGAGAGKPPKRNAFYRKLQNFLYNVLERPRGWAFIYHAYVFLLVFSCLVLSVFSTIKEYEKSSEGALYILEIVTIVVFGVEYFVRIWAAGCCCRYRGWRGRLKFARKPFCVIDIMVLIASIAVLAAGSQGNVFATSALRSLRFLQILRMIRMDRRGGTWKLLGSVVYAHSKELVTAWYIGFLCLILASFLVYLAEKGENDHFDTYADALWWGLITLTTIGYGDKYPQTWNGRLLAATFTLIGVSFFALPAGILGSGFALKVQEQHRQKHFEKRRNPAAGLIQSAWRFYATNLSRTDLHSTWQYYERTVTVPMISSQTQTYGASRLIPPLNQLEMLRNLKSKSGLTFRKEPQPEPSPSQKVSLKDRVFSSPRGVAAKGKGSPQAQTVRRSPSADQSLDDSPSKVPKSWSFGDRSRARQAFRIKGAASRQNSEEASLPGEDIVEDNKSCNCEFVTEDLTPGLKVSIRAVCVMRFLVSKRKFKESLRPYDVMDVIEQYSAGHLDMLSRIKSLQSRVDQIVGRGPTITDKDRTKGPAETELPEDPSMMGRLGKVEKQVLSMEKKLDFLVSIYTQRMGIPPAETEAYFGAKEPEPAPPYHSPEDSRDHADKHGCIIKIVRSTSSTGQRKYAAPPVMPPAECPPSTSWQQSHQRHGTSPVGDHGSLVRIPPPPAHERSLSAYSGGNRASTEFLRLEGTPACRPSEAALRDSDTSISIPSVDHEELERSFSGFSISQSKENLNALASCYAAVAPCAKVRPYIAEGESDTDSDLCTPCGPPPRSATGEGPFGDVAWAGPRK
KCNQ2 inh baseline: second read-out of KCNQ2 inh, no call of its own (marks repeat the call); B-score; measured here: initial fluorescence intensity artifact check;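 brightness before thallium and not channel activity; 0 = typical well and far values either way flag optical interference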
The depositor's hits bear a star; i = inactive. These rows are one share of the data (hit frequency here may not be typical).

KCNQ2 inh	KCNQ2 inh baseline	molecule
i	-1.8	CCOc1cc(N2CCOCC2)c(OCC)cc1NC(=O)Cc1ccc(OC)c(OC)c1
i	0.02	CC(=O)Nc1ccc(NC(=O)c2ccccc2N(Cc2ccccc2)S(C)(=O)=O)cc1
i	1.4	COc1ccc(C(=O)NC(Nc2ccccc2)C(Cl)(Cl)Cl)cc1 (configuration not stated)
i	-1.4	O=C(Nc1nnc(-c2ccccc2)o1)Nc1ccccc1Cl
i	0.62	CC(SCc1cc(=O)n2c([nH]c3ccccc32)c1C#N)C(=O)O (configuration not stated)
i	0.53	CC(=O)c1sc(NC(=O)CS(=O)(=O)c2ccccc2)nc1C
i	1.2	CCOC(=O)N1CCN(C(=O)CCc2c(C)nc3c(c(C)nn3-c3ccc(C)c(C)c3)c2C)CC1
i	0.01	COc1ccc(Cl)cc1N(CC(=O)NC1CC1)S(=O)(=O)c1ccc(C)c([N+](=O)[O-])c1
i	-0.01	COc1ccc(OC)c2c1CCC2=O
i	0.13	OC(Cc1cccnc1)(Cc1cccnc1)c1cc2ccccc2[nH]1
i	-1.3	Cc1cc(NC(=O)C2CCCN(S(=O)(=O)c3c(C)noc3C)C2)no1 (configuration not stated)
i	0.56	Cc1cc(C)c(C#N)c(SCC(=O)NC(C)(C)C)n1
i	1.8	O=c1c2ccccc2[nH]c(=S)n1CCN1CCN(Cc2ccccc2)CC1
i	2.3	Cc1ccc(C(=O)Nc2sc3c(c2C(=O)NCc2ccco2)CCCC3)cc1
i	0.58	Cc1ccccc1OCC(=O)N/N=C/c1cc2ccccc2nc1Cl
i	2.4	O=C(COc1ccccc1)NCC1CCCO1 (configuration not stated)
i	3.1	COc1ccc(C(=O)C(CN2CCOCC2)c2ccccc2)cc1F (configuration not stated)
i	-0.27	Cc1cc(C)n(CC2CC(=O)N(c3cc(Cl)cc(Cl)c3)C2=O)n1 (configuration not stated)
i	-1.2	CC(C)n1c(COc2ccccc2)nc2ccccc21
i	1.1	CN(C)S(=O)(=O)c1cccc(C(=O)OCC(=O)Nc2ccccc2OC(F)F)c1
i	-0.33	Cc1cc(NC(=O)CSCC(=O)OCC(=O)Nc2cc(C)c(C)cc2[N+](=O)[O-])no1
i	1.1	CC1(N2CCCCC2)CC2(O)C(=[N+]1[O-])CCC/C2=N\O (configuration not stated)
i	-1.5	Cc1ccc(C(=O)NCCc2nnc3ccc(N4CCCC4)nn23)cc1
i	-0.14	N=C1C2=C3Sc4ccccc4N3CCCC2=NN1c1cccc(S(=O)(=O)O)c1

A stretch from the list above, as a working copy:
KCNQ2 inh	KCNQ2 inh baseline	molecule
i	3.1	COc1ccc(C(=O)C(CN2CCOCC2)c2ccccc2)cc1F (configuration not stated)
i	-0.27	Cc1cc(C)n(CC2CC(=O)N(c3cc(Cl)cc(Cl)c3)C2=O)n1 (configuration not stated)
i	-1.2	CC(C)n1c(COc2ccccc2)nc2ccccc21
i	1.1	CN(C)S(=O)(=O)c1cccc(C(=O)OCC(=O)Nc2ccccc2OC(F)F)c1
i	-0.33	Cc1cc(NC(=O)CSCC(=O)OCC(=O)Nc2cc(C)c(C)cc2[N+](=O)[O-])no1

(cont.)
KCNQ2 inh	KCNQ2 inh baseline	molecule
i	-0.46	COc1ccc(-c2nnc3ccc(SCC(=O)Nc4nc5ccccc5s4)nn23)cc1OC
i	-1.7	Cc1onc(-c2ccccc2)c1C(=O)Nc1ccc(OC(C)C)cc1
i	-1.3	O=C(CSc1ccc(-c2cccnc2)nn1)Nc1ccc(F)cc1F
i	2.8	CC1CCCC(C)N1Cc1cn2ccccc2n1 (configuration not stated)
i	2.4	COc1cccc(NC(=O)/C=C/c2ccco2)c1
i	1.3	O=c1c2ccccc2c(-c2cccc(C(F)(F)F)c2)nn1-c1ccccc1
i	0.01	CC1c2[nH]c3ccccc3c2C[C@H]2C(=O)N(CCCO)CC(=O)N12 (some centres not stated)
i	1.9	COC(=O)CCC(=O)OC1(C)C(=O)C=C2C=C(C3CC3)N(CCN3CCOCC3)C=C2C1=O (configuration not stated)
i	-0.06	CCNC(=S)Nc1cc2oc3ccccc3c2cc1OC
i	0.2	O=C(CSc1ncccn1)NCCc1ccccc1
i	0.14	Cn1nc(C(C)(C)C)c(NC(=O)c2sccc2Cl)c1C(C)(C)C
i	0.01	O=C(Nc1ccc(C(=O)N2CCCC2)cc1)c1ccc2c(c1)OCO2
i	0.36	Cc1cc(=O)n(-c2ccc3ccccc3n2)[nH]1
i	0.14	CC1CCC(NC(=O)CCNC(=O)c2ccccc2)CC1 (configuration not stated)
-5.9*	-0.32*	Cc1sc2nc(CSc3ccccc3)nc(N3CCOCC3)c2c1C
i	1.9	CC1(C)OC(c2ccccc2)=C/C(=C/C=N/NC(=O)c2ccncc2)O1
i	0.93	N#Cc1nc(-c2ccc(F)cc2)oc1NCCN1CCOCC1
i	-0.34	Cc1ccc(NC(=O)CN(C)C(=O)C(C)OC(=O)c2ccccc2NCCO)cc1 (configuration not stated)
i	0.62	COC(=O)c1sccc1NC(=O)c1ccc(Cl)cc1
i	-0.77	CCOc1ccc(CNCCNC(=O)c2nonc2N)cc1
i	1	COc1ccc(OC)c(-c2nnc(SCC(=O)NC3CCCCC3)o2)c1
i	-1.4	Cc1cc(C(=O)NCCc2ccc(Cl)cc2)n(-c2ccccc2)n1
i	2	CCCOc1ccc(-c2nc(-c3ccc([N+](=O)[O-])cc3)cs2)cc1
i	0.78	CC(=O)c1ccc(-n2c(SCC(=O)c3c[nH]c4ccccc34)nc3ccccc3c2=O)cc1

Retrieved by structure from the entries so far, 2 records:
KCNQ2 inh	KCNQ2 inh baseline	molecule
i	0.01	CC1c2[nH]c3ccccc3c2C[C@H]2C(=O)N(CCCO)CC(=O)N12 (some centres not stated)
i	1	COc1ccc(OC)c(-c2nnc(SCC(=O)NC3CCCCC3)o2)c1

Further records
KCNQ2 inh	KCNQ2 inh baseline	molecule
i	0.65	O=C(O)c1ccc(S(=O)(=O)Cc2ccccc2)cc1
i	-0.23	CSc1ccccc1C(=O)NCc1ccc2c(c1)OCO2
i	-1.1	O=C(Nc1ccc(C(F)(F)F)cc1)C1CCCN1S(=O)(=O)c1cccc2cccnc12 (configuration not stated)
i	-0.1	Cc1cccc(C)c1NC(=O)CCn1cnc2ccccc2c1=O
i	-0.21	CN1CCN(C(=S)c2cn(Cc3ccccc3F)c3ccccc23)CC1
i	-1.7	COc1ccc(-c2oc3cccnc3c2-c2ccc(OC)nc2)cc1
i	-1	O=S(=O)(c1ccc(-c2ccno2)s1)N1CCCCC1
i	0.13	O=S(=O)(c1ccccc1)N1N=C(c2ccccc2)CC1c1ccccc1F (configuration not stated)
i	0.01	Cc1ccc[n+](CC(=O)c2ccc(NC(=O)c3ccccc3)cc2)c1C
i	0.37	COC(=O)c1ccccc1NC(=O)c1ccccc1N(C)S(=O)(=O)c1ccccc1
i	-1.8	CC1CCN(c2c(NCC3CCC(C(=O)N4CCCCC4)CC3)c(=O)c2=O)CC1 (configuration not stated)
i	0.03	CCON1C(=O)CN(C(=O)OC)C1c1ccc(Cl)cc1Cl (configuration not stated)
i	-2.3	O=C(NC(=S)NNC(=O)c1ccccc1O)c1ccc(F)cc1
i	0.16	Cc1cc(C(=O)CSc2nnc(-c3cccc(F)c3)n2N)c(C)n1Cc1ccc2c(c1)OCO2
i	-0.26	COc1ccc(Oc2ccccc2C#N)cc1
i	-2.6	CC(=O)c1sc(Nc2nc(C)cc(C)n2)nc1C
i	-0.93	COc1ccc(-c2noc(CSc3nnc(Cc4ccccc4)n3-c3ccc(Cl)cc3)n2)cc1
i	-4.6	COc1ccc(N(C(=O)c2ccco2)C(C(=O)NC2CCCC2)c2ccc(N3CCOCC3)cc2)c(OC)c1 (configuration not stated)
i	2	O=C(Nc1nc(-c2ccc3c(c2)OCCO3)cs1)C1CCCC1
i	0.02	O=C(CN(CC1CCCO1)C(=O)CNS(=O)(=O)c1ccc(F)cc1)NCCc1ccccc1 (configuration not stated)
i	1.7	Cc1ccccc1NC(=O)NCCCCc1ccccc1
i	-0.07	Cc1nc2sc(C(c3ccco3)N3CCN(c4ccccc4)CC3)c(O)n2n1 (configuration not stated)
i	0.01	O=C(CNC(=O)c1cccs1)Nc1ccncc1
i	-1.2	C/C(=N/Oc1nc(C)cc(C)n1)c1ccccc1
i	0.26	OCC1(Cc2ccc(F)cc2)CCCN(Cc2ccc(F)cc2Cl)C1 (configuration not stated)
i	1	Cc1cc(/C=N/O)c(C)n1-c1ccccc1
i	-1.9	COc1cccc(CC2CC(=O)N(CCc3ccc4c(c3)OCO4)C2=O)c1 (configuration not stated)
i	-0.04	O=C(Nc1nccs1)c1ccccc1N=Cc1ccccc1
i	0.2	CN(C)C(=O)c1ccc2c(c1[N+](=O)[O-])C(=O)c1ccccc1C2=O
i	0.17	CCCN1CCN(S(=O)(=O)c2ccc(-c3cc(C)no3)s2)CC1
i	0.41	O=C(O)c1ccc(OCC(F)(F)F)nc1
i	-0.05	COc1ccc(-c2cc(-c3ccccc3)n3ncnc3n2)cc1
i	0.24	N/C(=N\OC(=O)Oc1ccccc1)c1cccc([N+](=O)[O-])c1
i	0.54	COc1ccccc1N(Cc1cc(=O)[nH]c2ccccc12)C(=O)c1cccc([N+](=O)[O-])c1
i	-3	Cc1cc(Br)cc2c(C(=O)Nc3c(C)n(C)n(-c4ccccc4)c3=O)cc(-c3cccs3)nc12
i	-0.23	O=C(N/C=C\n1cnc2cc(C(F)(F)F)ccc21)c1ccc([N+](=O)[O-])cc1

Filtered by structure, the entries above containing an NH in an aromatic ring.
KCNQ2 inh	KCNQ2 inh baseline	molecule
i	0.62	CC(SCc1cc(=O)n2c([nH]c3ccccc32)c1C#N)C(=O)O (configuration not stated)
i	0.13	OC(Cc1cccnc1)(Cc1cccnc1)c1cc2ccccc2[nH]1
i	1.8	O=c1c2ccccc2[nH]c(=S)n1CCN1CCN(Cc2ccccc2)CC1
i	0.01	CC1c2[nH]c3ccccc3c2C[C@H]2C(=O)N(CCCO)CC(=O)N12 (some centres not stated)
i	0.36	Cc1cc(=O)n(-c2ccc3ccccc3n2)[nH]1
i	0.78	CC(=O)c1ccc(-n2c(SCC(=O)c3c[nH]c4ccccc34)nc3ccccc3c2=O)cc1
i	0.54	COc1ccccc1N(Cc1cc(=O)[nH]c2ccccc12)C(=O)c1cccc([N+](=O)[O-])c1

Continued:
KCNQ2 inh	KCNQ2 inh baseline	molecule
i	1.2	Cc1ncc(CO)c(/C=N/NC(=S)Nc2ccc(C(C)C)cc2)c1O
i	0.55	CC1CCN(C(=O)c2scc3c2OCCO3)CC1
i	0.18	Cc1nc(S/C(C(=O)O)=C2/C(=O)Nc3ccccc32)n[nH]1
i	0.15	Cc1ccn2cc(CSc3ccccc3)nc2c1
i	1.2	COc1ccccc1NC(=O)CSc1nnnn1-c1ccccc1OC
i	-0.88	S=C1NC(c2ccccc2)=NCN1c1ccc(Cl)cc1
i	1.1	COc1cc(NS(=O)(=O)c2ccc(NC(C)=O)cc2)cc(OC)c1
i	0.7	CC(=O)NCCC(=O)Nc1cc(S(=O)(=O)N2CCOCC2)ccc1Oc1ccc(F)cc1
i	2.5	COc1ccc(/C=C2\SC(=S)N(CC(=O)NNC(=O)c3ccncc3)C2=O)cc1
i	-0.01	COc1ccccc1NC(=O)C1CCCN(S(=O)(=O)c2c(C)noc2C)C1 (configuration not stated)
i	0.21	COc1cccc(N(C(=O)C2COc3ccccc3O2)C(C(=O)NC2CCCCC2)c2ccc(O)cc2)c1 (configuration not stated)
i	1.9	O=C(NC(=Nc1nc2ccccc2o1)NC(=O)c1ccccc1)c1ccccc1
i	-1	Cc1ccnc(SCC(=O)N2CCc3ccccc3C2)n1
i	1.4	CCc1ccc2nc(NC(=O)CSCc3c(C)noc3C)sc2c1
-5.7*	-1.9*	CN1CCN(NC(=O)c2cc(-c3ccc(Br)s3)nc3ccccc23)CC1
i	-2	CC(=O)NNS(=O)(=O)c1ccc(-c2cc(C(F)(F)F)n(C)n2)s1
i	2.6	Nc1ccc(-c2nc3cc(N)ccc3s2)cc1
i	-0.03	CCCn1nc(NC(=O)c2cccs2)c2cc3ccc(C)cc3nc21
i	-1.4	COc1ccc(C(=O)NCc2nnc(SC)n2C2CCCCC2)cc1
i	6.3	COc1cccc(/C=C2\SC(=O)N(CC(=O)NCCCn3ccnc3)C2=O)c1
i	1.4	O=C(c1ccc2c(c1)OCO2)N1CCC2(CC1)Oc1ccc(Cl)cc1C(=O)C21CC(c2cccnc2)=NO1 (configuration not stated)
i	0.14	COc1ccc(NC(=O)C(C)NS(=O)(=O)c2ccc(NC(C)=O)cc2)cc1Cl (configuration not stated)
i	-0.28	CCN(C(=O)COC(=O)c1cc(-c2cccs2)nc2ccccc12)C1CCS(=O)(=O)C1 (configuration not stated)
i	-0.03	COC(=O)c1ccc(OC(=O)C23CCC(C)(C(=O)O2)C3(C)C)cc1 (configuration not stated)
i	-1.7	CN(c1ccccc1)S(=O)(=O)c1ccc(C(=O)Nc2nnc(C3CC3)o2)cc1
i	-1	Fc1ccc(N/N=C/c2cccnc2)c(F)c1
i	0.58	COCc1cc(C)nc2sc(C(=O)N3CCCC3)c(N)c12
i	-1.8	O=C(CN1CCCc2ccccc21)NCc1ccccc1Cl
i	-1	CCCCc1nc2ccccc2c(NC(=O)CN(CC)CC)c1CCC
i	0.21	CN(CC1CCCN(CCc2cccc(C(F)(F)F)c2)C1)C(=O)c1ccc2nc[nH]c2c1 (configuration not stated)
i	0.31	NN=C(c1ccccc1)c1ccccc1
i	-1.2	O=C(COC(=O)C12CC3CC(CC(C3)C1)C2)Nc1ccc([N+](=O)[O-])cc1Br
i	0.08	Cn1c(=O)n(C)c2cc(S(=O)(=O)N3CCCc4ccccc43)ccc21

Compound activity deposited in PubChem BioAssay by Johns Hopkins Ion Channel Center.
